Measles inh: inhibitors of measles virus growth in infected cells. z-score (no concentration beside the values). 33,000 tested, 0.1% active. infected Vero cells, GFP fluorescence, 64 h; hits give low values;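 active = z-score under -3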;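 also: score is relative to mean and SD of the compound wells of a plate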
An asterisk follows results filed as active.

What do the screens show for `CCC1CCCCN1Cc1nc2c(c(=O)n(C)c(=O)n2C)n1CCOC` (centres undefined)?
Measles inh: 0.71

What do the screens show for `CCOC(=O)c1c(NC(=O)CCC(=O)O)sc2c1CCCC2=O`?
Measles inh: -0.61

Results for COc1ccc(OC)c(C2Nc3ccc4ccccc4c3C3=C2C(=O)CC(C)(C)C3)c1 (centres undefined) ?
Measles inh: 0.06

What do the screens show for `CCOC(=O)C1=C(C)NN=C(C)C1`?
Measles inh: 0.21

How did Clc1ccc(Cn2c(CNc3ccccc3)nc3ccccc32)cc1 do in these assays?
Measles inh: -0.42

Results for O=C(CSc1nc2ccc(N3CCOCC3)cc2c(=O)n1Cc1ccccc1)Nc1cccc(C(F)(F)F)c1 ?
Measles inh: -2.4

Results for CC(C)Nc1ncnc(N)c1[N+](=O)[O-] ?
Measles inh: 0.86

Results for COC(=O)c1cnn2c(C)c(Cc3ccccc3C)c(C)nc12 ?
Measles inh: -0.04

How did CCOc1ccc(NC(=O)CN2C(=O)C3C4CCC(C4)C3C2=O)cc1 (centres undefined) do in these assays?
Measles inh: -3.2*

How did Cc1ccc(NCc2ccccc2CO)cc1 do in these assays?
Measles inh: -0.53

Results for COc1cccc2cc(C3=Nn4c(nnc4-c4ccccc4Br)SC3)c(=O)oc12 ?
Measles inh: 0.09

How did O=C1CN(CCc2ccccc2)CC(=O)N1CCc1ccccc1 do in these assays?
Measles inh: 1.3

How did CC(=O)C1=NN(c2ccccc2C)C2C(=O)N(c3ccc(Br)cc3)C(=O)C12 (centres undefined) do in these assays?
Measles inh: 2

Results for Cc1sc2c(c1C)c(=O)n(-c1ccc(F)cc1)c(=O)n2Cc1ccc(F)cc1 ?
Measles inh: -0.1

How did CC(=O)N1CCN(C2c3cccc4cccc(c34)C2NS(=O)(=O)c2ccc(Cl)cc2)CC1 (centres undefined) do in these assays?
Measles inh: -0.89

Structures from the list above with bromine (2):
Results for COc1cccc2cc(C3=Nn4c(nnc4-c4ccccc4Br)SC3)c(=O)oc12 ?
Measles inh: 0.09

How did CC(=O)C1=NN(c2ccccc2C)C2C(=O)N(c3ccc(Br)cc3)C(=O)C12 (centres undefined) do in these assays?
Measles inh: 2

(cont.)
Results for Cc1cccc(NC(=O)c2ccc(N3CC4CC(C3)c3cccc(=O)n3C4)c(NC(=O)c3ccc(F)cc3)c2)n1 (centres undefined) ?
Measles inh: -0.61

How did Cc1ccc(N=Cc2c(C)c(Cl)c(C)c([N+](=O)[O-])c2O)cc1C do in these assays?
Measles inh: 2.5

How did NC(=O)C1CCN(C(=O)CNC(=O)Cn2cnc3ccccc3c2=O)CC1 do in these assays?
Measles inh: -0.69

Results for Nc1c(S(=O)(=O)Cc2ccccc2)sc2nc(-c3cccs3)cc(-c3ccccc3)c12 ?
Measles inh: 2.4

What do the screens show for `CC1CCCC(C)N1CCCNC(=O)C1c2ccccc2C(=O)N1Cc1ccc2c(c1)OCO2` (centres undefined)?
Measles inh: -0.14

How did N#CCc1ccc(NC(=O)c2cccs2)cc1 do in these assays?
Measles inh: 1.4

What do the screens show for `O=C(CSc1nnc(C2COc3ccccc3O2)o1)NC1CCCCC1` (centres undefined)?
Measles inh: -0.99

What do the screens show for `O=C(Cn1c(=O)n(-c2ccccc2)c(=O)c2c3c(sc21)CCC3)c1ccccc1`?
Measles inh: -0.55

What do the screens show for `Cc1cc(C)nc(SCC(=O)Nc2ccc(Cl)cn2)n1`?
Measles inh: -1.2

What do the screens show for `CCOCCCn1c(=N)c(C(N)=O)cc2c(=O)n3cccc(C)c3nc21`?
Measles inh: -0.32

Results for Cc1ccc(-c2noc(CCC(=O)N(C)c3cc(Cl)ccc3C)n2)cc1 ?
Measles inh: -0.7

How did COc1cc2nc(SCC(=O)NCc3ccco3)n3nc(C)nc3c2cc1OC do in these assays?
Measles inh: 0.34

What do the screens show for `CCOc1ccccc1NC(=O)c1ccc([N+](=O)[O-])o1`?
Measles inh: -0.96

How did CCOc1ccc(S(=O)(=O)N2C(C)CCCC2C)cc1 (centres undefined) do in these assays?
Measles inh: 0.12

What do the screens show for `Nc1ccc2c(c1)C(=O)N(CCO)C2=O`?
Measles inh: 0.36

What do the screens show for `Cc1ccc(S(=O)(=O)c2c(C)nn(-c3ccccc3)c2OC(=O)c2ccc([N+](=O)[O-])cc2)cc1`?
Measles inh: -1

What do the screens show for `COC(=O)C1=C(C)N(c2ccc(OC)c(Cl)c2)C(=O)C1`?
Measles inh: 1.2

Results for COc1cc2nc(-c3cccc([N+](=O)[O-])c3)oc(=O)c2cc1OC ?
Measles inh: 0.35

Results for O=C(O)c1c2c(nc3ccccc13)CCN(S(=O)(=O)c1ccc(Cl)cc1)C2 ?
Measles inh: -1.6

How did CCOC(=O)c1c(C)n(C)c2cc(Br)c(O)c(O)c12 do in these assays?
Measles inh: 0.96

How did COc1ccc(C(=O)CC(=O)C(=O)Nc2cccc(C)c2C)cc1 do in these assays?
Measles inh: -0.74

Results for CCCCC(=O)Nc1ccccc1OC ?
Measles inh: -0.49

How did O=C1CC(c2cn(Cc3ccccc3)c3ccccc23)C(=O)N1c1ccccc1 (centres undefined) do in these assays?
Measles inh: -0.32

What do the screens show for `CC1(C)CC(=O)C2=C(C1)N=C1c3ccccc3C(=O)C1C2c1ccc(-c2ccccc2)cc1` (centres undefined)?
Measles inh: -1.1

How did O=S(=O)(Nc1nccs1)c1ccc(Nc2nnc(-c3ccccc3)c3ccccc23)cc1 do in these assays?
Measles inh: -0.38

How did CC(=O)Nc1c(C(=O)Nc2ccccc2)nnn1Cc1ccccc1 do in these assays?
Measles inh: 0.27

How did COc1cccc(CNC(=O)C2CCN(S(=O)(=O)N3CCCC3)CC2)c1 do in these assays?
Measles inh: 0.74

Results for Cc1cc(C)n2nc(S(=O)(=O)NCc3ccccc3)nc2n1 ?
Measles inh: -0.61

Results for COc1ccc(NC(=O)CSc2nnc(-c3ccncc3)n2-c2ccccc2)cc1 ?
Measles inh: -0.48

How did O=C(C1CCCN(S(=O)(=O)c2cnc[nH]2)C1)N1CCc2ccccc21 (centres undefined) do in these assays?
Measles inh: -0.85

The final 2 entries of the part before are carried over, then new ones follow:
Results for COc1ccc(NC(=O)CSc2nnc(-c3ccncc3)n2-c2ccccc2)cc1 ?
Measles inh: -0.48

How did O=C(C1CCCN(S(=O)(=O)c2cnc[nH]2)C1)N1CCc2ccccc21 (centres undefined) do in these assays?
Measles inh: -0.85

What do the screens show for `Cc1ccc(-[n+]2c(C)c(C(=O)c3ccccc3)n3c(C)csc32)cc1`?
Measles inh: 0.64

Results for COc1ccccc1Oc1ncnc2scc(-c3ccc(F)cc3)c12 ?
Measles inh: -2.3

What do the screens show for `CC=CCOC(=O)C1=C(C)NC(=O)NC1c1ccc(CC)cc1` (centres undefined)?
Measles inh: 2.9

What do the screens show for `CS(=O)(=O)N(CC(=O)NCCc1ccccc1)c1cc(C(F)(F)F)ccc1Cl`?
Measles inh: 2.3

How did COC(=O)c1ccccc1NC(=O)Cn1c(=O)n(-c2cccc(C(F)(F)F)c2)c(=O)c2sccc21 do in these assays?
Measles inh: -1

What do the screens show for `O=S(=O)(Nc1ccc(Oc2ccccc2)cc1)c1ccc(Br)cc1`?
Measles inh: -2.2

Results for CC1(C)CC(=O)C2=C(C1)Nc1nc(SCc3ccccc3)nn1C2c1cccc(O)c1 (centres undefined) ?
Measles inh: 1.9

How did Nc1ccc(Sc2ccc3ccccc3c2Cl)c(Cl)c1 do in these assays?
Measles inh: -1.4

Results for O=C(NC1CCCCC1)c1ccc(Cn2c(=S)[nH]c3ccsc3c2=O)cc1 ?
Measles inh: 1.1

Results for Cc1ccccc1C(=O)Nc1cccc(NC(=O)c2cccc(Br)c2)c1 ?
Measles inh: -0.28

What do the screens show for `O=C(Cc1cccs1)N1CCN(C2=NS(=O)(=O)c3ccccc32)CC1`?
Measles inh: -0.81

Results for COc1ccc(Cl)cc1C(=O)NCCn1ccc2ccccc21 ?
Measles inh: -0.52

What do the screens show for `COC(=O)c1cc(Oc2ccc(C(=O)OC)cc2[N+](=O)[O-])cc(C(=O)OC)c1`?
Measles inh: 0.42

How did Cc1onc(-c2ccccc2Cl)c1C(=O)Nc1ccc(S(=O)(=O)N2CCC(C)CC2)cc1 do in these assays?
Measles inh: 0.97

Results for Cc1cccc(N(C)S(=O)(=O)c2ccc3[nH]cc(C(=O)N4CCN(c5ccccc5)CC4)c(=O)c3c2)c1 ?
Measles inh: -0.35

What do the screens show for `COc1ccc(C(=O)N2CCCCC2)cc1S(=O)(=O)Nc1cccc(Br)c1`?
Measles inh: -0.99

What do the screens show for `Cn1c2ccccc2c2c(C(=O)NCCC3=CCCCC3)cn(C3CCCC3)c(=O)c21`?
Measles inh: 0.28

Results for Cc1ccc(S(=O)(=O)c2nc(-c3ccccc3)n3c2SCC3)cc1 ?
Measles inh: -0.14

How did COc1ccc(C=Nc2sc3c(c2C#N)CCC(C)C3)cc1OC (centres undefined) do in these assays?
Measles inh: -0.69

Results for CN(c1ccc(C(=O)NCCc2ccccc2)cc1)S(=O)(=O)c1ccccc1 ?
Measles inh: -1.5

Results for Clc1ccc2nc(-c3ccco3)c(Nc3ccccc3)n2c1 ?
Measles inh: -0.35

What do the screens show for `O=C(Nc1ccc(Cl)cn1)c1ccc(-c2ccc(Cl)cc2)o1`?
Measles inh: -0.31

How did COc1ccc2c(c1)c1ccccc1n2C do in these assays?
Measles inh: -0.01

How did O=C(NCc1cccnc1)c1cc(Nc2cccc(C(F)(F)F)c2)nc2ccccc12 do in these assays?
Measles inh: -0.24

What do the screens show for `O=C(O)COc1ccc(Cl)cc1CCl`?
Measles inh: -0.05

What do the screens show for `COc1ccc(-n2nnnc2SCc2ccc(Cl)cc2)cc1`?
Measles inh: -0.06

What do the screens show for `COc1cc(OC)cc(C(=O)Nc2cc3nn(-c4ccc(C)cc4)nc3cc2C)c1`?
Measles inh: -0.02

What do the screens show for `CCN1C(=O)c2cccc3c(S(=O)(=O)Nc4ccccc4F)ccc1c23`?
Measles inh: -1.2

Results for O=C(NCc1ccccc1)c1c(N=Cc2cccc([N+](=O)[O-])c2)sc2c1CCCC2 ?
Measles inh: 1.1

Results for COc1ccc(N=c2oc3cc(OC(C)=O)ccc3cc2C(=O)NC(C)=O)cc1 ?
Measles inh: -0.13

How did COc1cccc(CCNc2ccc(N3C(=O)C4CCC(C)CC4C3=O)cc2[N+](=O)[O-])c1 (centres undefined) do in these assays?
Measles inh: -0.33

How did CC(CCc1ccccc1)NC(=O)CC(C)(C)CC1=NS(=O)(=O)c2ccccc2N1 (centres undefined) do in these assays?
Measles inh: -0.7

What do the screens show for `CC1=C(C(=O)Nc2ccccc2)C(c2ccccc2)NC(=O)N1` (centres undefined)?
Measles inh: -0.32

Results for COC(=O)c1ccccc1N1C(=S)NC(C)(C)C=C1C ?
Measles inh: -1.7

What do the screens show for `CCOc1ccc(CCNC(=O)c2cccs2)cc1OCC`?
Measles inh: 0.4

How did NC(=O)CSc1nc2c(c(=O)n1-c1ccccc1)C1(CCCC1)Cc1ccccc1-2 do in these assays?
Measles inh: 1.8

What do the screens show for `O=C(Nc1cc(C(F)(F)F)ccc1Cl)c1cc(S(=O)(=O)NCc2ccc3c(c2)OCO3)ccc1F`?
Measles inh: 0.73

What do the screens show for `Cc1cccc(-c2noc(C34CC5CC(CC(C5)C3)C4)n2)c1`?
Measles inh: -0.8

How did CNC(=O)c1cc2c(=O)n3ccccc3nc2n(CC2CCCO2)c1=N (centres undefined) do in these assays?
Measles inh: 0.19

How did CCOc1ccc(C(=O)Nc2ccc3oc(-c4ccc(F)cc4)nc3c2)cc1Cl do in these assays?
Measles inh: -1

What do the screens show for `COCCn1cc(C(=O)NCC2COc3ccccc3O2)c2c3ccccc3n(C)c2c1=O` (centres undefined)?
Measles inh: 0.28

What do the screens show for `O=C(CSc1nc2sc3c(c2c(=O)[nH]1)CCCC3)NCCN1CCOCC1`?
Measles inh: 1.3

What do the screens show for `COc1ccc2[nH]c(C)c(CN3CCCC3)c(=O)c2c1`?
Measles inh: -0.12

What do the screens show for `COc1ccc(N2C(=O)CSC2c2ccccc2[N+](=O)[O-])cc1Cl` (centres undefined)?
Measles inh: -0.01

How did COC(=O)CSc1nc2c(c(=O)[nH]1)C(C1CCCC1)Cc1ccccc1-2 (centres undefined) do in these assays?
Measles inh: 0.04

Looked up by structure from the entries so far (four):
What do the screens show for `Cc1cccc(-c2noc(C34CC5CC(CC(C5)C3)C4)n2)c1`?
Measles inh: -0.8

What do the screens show for `CCOc1ccc(CCNC(=O)c2cccs2)cc1OCC`?
Measles inh: 0.4

How did CCOc1ccc(C(=O)Nc2ccc3oc(-c4ccc(F)cc4)nc3c2)cc1Cl do in these assays?
Measles inh: -1

What do the screens show for `COCCn1cc(C(=O)NCC2COc3ccccc3O2)c2c3ccccc3n(C)c2c1=O` (centres undefined)?
Measles inh: 0.28

Copied from the entries so far for reference:
Results for COC(=O)c1ccccc1N1C(=S)NC(C)(C)C=C1C ?
Measles inh: -1.7

What do the screens show for `CCOc1ccc(CCNC(=O)c2cccs2)cc1OCC`?
Measles inh: 0.4

Next section
Results for CCN1C(=O)NC2C1NC(=O)N2CC (centres undefined) ?
Measles inh: -0.31

Results for COc1ccc(CCn2c(=S)[nH]c3cc(OC)c(OC)cc3c2=O)cc1OC ?
Measles inh: 2.6

How did Cn1c(=O)c2nc3c(nc2n(C)c1=O)[nH]c1ccccc13 do in these assays?
Measles inh: 0.33

What do the screens show for `Cc1cccc(NC(=O)CSc2nnc3c(n2)-c2cccc4cccc-3c24)c1C`?
Measles inh: 0.92

How did O=C1C(Sc2nc3ccccc3o2)=C(Sc2nc3ccccc3o2)C(=O)N1c1ccccc1 do in these assays?
Measles inh: 0.4

How did CCOc1ccc(NC(=O)c2cn(C)c(=O)c3cc(OC)c(OC)cc23)cc1 do in these assays?
Measles inh: 0.65

What do the screens show for `COC(=O)C1CCN(C(=O)CCC2CCCCC2)CC1`?
Measles inh: -0.66

How did COc1ccccc1CNC(=O)CC1N=C2c3ccccc3N=C(SCc3ccccc3Cl)N2C1=O (centres undefined) do in these assays?
Measles inh: 1.2

What do the screens show for `c1ccc(-c2cc3c(Oc4cccc5cccnc45)ncnc3s2)cc1`?
Measles inh: 0.31

Screening data (PubChem)

This is a subset; count on the stated rates, not on these rows.
